Bioassay records as filed in PubChem BioAssay.
LANA-H2B inh: blocks KSHV LANA binding to histone H2A/H2B. Q9QR71. cell-free LANA-H2A/H2B peptide, fluorescence polarization. inhibition, % (test concentration not listed). 320,000 tested, 0.6% active; in the data active = inhibition mostly above about 10%, no sharp cut-off; inactive = mostly below about 6.7%;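 note: stock transfer was 7.5 nL into about 10 µL; 0% = median of vehicle wells and 100% = median of positive control wells; one replicate is shown; the record names a cut of 25% in any replicate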
UCH37 inh: human UCH37 deubiquitinating enzyme inhibition | Q9Y5K5 | purified proteasome/UCH37, Ub-AMC cleavage fluorescence | inhibition, % (test concentration not listed) | 330,000 tested, 0.33% active | AID 588478;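 active = mean of two replicates above 20%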;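 note: 0% = compound-free wells with enzyme and 100% = wells lacking proteasome; stock transfer was 100 nL into about 20 µL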
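assay system = human UCH37 enzyme supplied as purified proteasome complex | amount = proteasome at 0.15 nM in the dispensed enzyme solution | schedule = 30 min compound-proteasome preincubation then 25 min substrate reaction, room temperature | measured by = fluorescence, ex 355 nm, em 460 nm | benchmarks = no-proteasome wells (full inhibition) and compound-free wells (no inhibition)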
HNF4A DNA FP: change in binding of human HNF4 alpha to DNA; 360,000 tested, 0.3% active; activity change, % at 10 µM; HNF4a-FITC DNA binding, fluorescence polarization, 1 h; P41235; in the data active = activity change above about 30%, passing the limit was not always enough;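 note: controls were the assay level and a saturating level of protein; the project sought stronger binding though the title names inhibitors; some compounds called inactive have numbers as strong as hits; positive values seem to mean higher polarization but the record does not say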
Target sequence (P41235 whole entry, looked up): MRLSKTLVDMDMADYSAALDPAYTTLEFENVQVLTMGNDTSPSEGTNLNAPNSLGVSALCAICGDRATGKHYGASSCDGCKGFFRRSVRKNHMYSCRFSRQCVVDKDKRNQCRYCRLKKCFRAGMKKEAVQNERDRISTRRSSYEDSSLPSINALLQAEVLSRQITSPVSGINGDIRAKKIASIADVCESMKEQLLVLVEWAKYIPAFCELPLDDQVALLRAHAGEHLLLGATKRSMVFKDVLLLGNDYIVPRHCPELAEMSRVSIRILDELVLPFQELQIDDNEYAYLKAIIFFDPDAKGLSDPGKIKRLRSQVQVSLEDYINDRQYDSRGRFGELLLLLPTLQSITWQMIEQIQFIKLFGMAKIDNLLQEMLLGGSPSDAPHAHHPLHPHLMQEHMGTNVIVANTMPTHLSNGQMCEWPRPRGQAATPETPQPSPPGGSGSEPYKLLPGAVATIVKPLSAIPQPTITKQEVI
Beta2AR agonist: human beta-2 adrenergic receptor agonism by FAP | P07550 | Am2.2-beta2AR cells, FAP receptor internalization, flow cytometry; reference of the scale not given here | response, % (test concentration not listed) | 340,000 tested, 0.43% active;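 active = response above a set limit, near 3 SD of response in nonfluorescent compounds, cut at about 42% in these data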;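 note: stock transfer was 100 nL into about 11 µL; a reference agonist was the positive control; negative values mostly stem from fluorescent compounds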
Target sequence (P07550 whole entry, looked up): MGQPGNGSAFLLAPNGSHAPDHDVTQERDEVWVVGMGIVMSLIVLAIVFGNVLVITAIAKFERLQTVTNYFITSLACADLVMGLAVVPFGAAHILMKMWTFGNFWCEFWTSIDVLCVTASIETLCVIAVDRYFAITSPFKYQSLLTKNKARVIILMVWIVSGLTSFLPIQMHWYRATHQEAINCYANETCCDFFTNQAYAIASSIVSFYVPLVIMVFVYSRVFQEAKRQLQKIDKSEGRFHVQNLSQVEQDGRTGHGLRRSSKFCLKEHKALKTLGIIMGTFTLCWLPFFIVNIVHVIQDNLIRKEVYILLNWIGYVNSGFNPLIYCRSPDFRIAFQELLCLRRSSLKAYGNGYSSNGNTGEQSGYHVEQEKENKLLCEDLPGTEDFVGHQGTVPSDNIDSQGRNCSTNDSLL
FGF22 binding: binders of recombinant human FGF22 by thermal shift. Q9HCT0. SYPRO orange fluorescence; percent of sucrose octasulfate shift, DMSO zero. calls only at 9.99 µM. 340,000 tested, 1.5% active;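 active = melting point raised past a set limit in the mean and every replicate; inconclusive = no clear call; three in four hits are not shown here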
Ecoli growth: inhibitors of Escherichia coli growth | OD600 absorbance (no concentration beside the values) | OD600, 23 h; hits give low values | 330,000 tested, 0.21% active;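 active = OD600 absorbance below the run mean of sample wells minus 3.6 SD, in any replicate, cut at about 0.56 in these data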;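 note: stock transfer was 300 nL into about 60 µL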
ALR H2O2 inh: human ALR oxidase inhibition via reduced H2O2; P55789; purified ALR, DTT oxidation, H2O2 HRP-luminol luminescence; inhibition, % (concentration not given with the values); 290,000 tested, 3.8% active;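 active = mean and each replicate at 75% or more; inconclusive = only one of the two met; inactive = neither met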;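 note: stock transfer was 7.5 nL into about 7.5 µL; 0% = neutral wells and 100% = wells with inactivated enzyme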
Starred values were filed as active, the others as inactive; i = inactive; u = inconclusive; x = not tested or not shown; + = active, no number.

HNF4A DNA FP	Beta2AR agonist	LANA-H2B inh	UCH37 inh	ALR H2O2 inh	Ecoli growth	FGF22 binding	SMILES
1.4	-13	-0.4	7.4	74	0.72	x	CCOc1ccc(N2C(=O)/C(=C/c3ccco3)N(C)C2=S)cc1
-0.4	-6	-3.2	i	-2	0.65	i	N=c1c(C(=O)NCC2CCCO2)cc2c(=O)n3ccccc3nc2n1Cc1ccc(Cl)cc1 (stereo unspecified)
0.3	8	1.1	0.9	1	0.69	x	COc1ccc(S(=O)(=O)N(C)C2CCS(=O)(=O)C2)cc1OC (stereo unspecified)
-0.1	-2	3.3	-2.8	-2	0.71	i	Cc1ccc(S(=O)(=O)N(C)c2ccc(C(=O)NCCc3ccccc3)cc2)cc1
4.5	22	-0.6	-54	3	0.74	i	CCN(CC)S(=O)(=O)c1cccc(C(=O)Nc2nc3cc4c(cc3s2)OCCO4)c1
0.1	3	1.4	4.3	-13	0.69	i	CC(C)n1c(SCC(=O)NCc2ccco2)nnc1C1CC1
-0.4	-8	-1.7	0.1	62	0.67	x	O=C(CSc1ncc(-c2ccc(F)cc2)[nH]1)NCc1ccco1
-2.0	9	2.0	x	-2	x	i	COc1ccc(/C=N\NC(=O)c2ccccc2OC)cc1COc1ccccc1C
-0.1	7	2.0	-1.4	-4	0.69	i	Cc1ccc(NC(=O)c2cccc(C(=O)Nc3ccc(C)c(C)c3)n2)cc1C
-3.4	3	-2.8	7.2	16	0.71	x	O=C1c2ccccc2C(=O)c2c1ccc1c(=O)n(C3CCCCC3)[nH]c21
1.1	-3	-6.1	6.7	20	0.68	i	Cc1cc(NC(=O)c2ccc(Cl)cc2)c(C)cc1O
2.1	4	3.8	4.0	11	0.69	i	CN(Cc1ccc(F)cc1)C(=O)CNC(=O)c1cccs1
-4.7	-5	1.3	2.8	-2	0.7	i	O=C(Nc1ccc(F)cc1F)N1CCN(c2ncccn2)CC1
-2.5	9	1.0	1.8	-2	0.65	i	Cc1cc(OCC(=O)Nc2ccc(CN3CCOCC3)cc2)ccc1Cl
17	-3	-13	0.9	23	0.72	i	N#Cc1ccc(OCC(=O)Nc2ccc(N3CCCC3)cc2)cc1
6.1	-13	4.1	0.9	-2	0.67	i	O=C(COC(=O)/C=C/c1ccc(C(F)(F)F)cc1)NC1CCCC1
1.8	-3	-4.9	0.9	5	0.66	x	CCS(=O)(=O)c1ccc(O)c(NC(=O)COc2ccc(OC)cc2)c1
2.5	5	0.5	-0.3	-6	0.7	x	COCCN(C(=O)c1ccco1)C(C(=O)NC1CCCC1)c1cccs1 (stereo unspecified)
0.7	-1	3.0	0.9	-9	0.69	x	COc1ccc(C(=O)OCCNC(=O)c2c(Cl)nc3ccccn23)cc1
2.9	0	3.8	-0.7	-7	0.74	x	COc1ccccc1NC(=O)C1CCCCC1

Rewritten with each value named: entries from further up
canonical_smiles: COc1ccc(S(=O)(=O)N(C)C2CCS(=O)(=O)C2)cc1OC (stereo unspecified)
  HNF4A DNA FP: 0.3
  Beta2AR agonist: 8
  LANA-H2B inh: 1.1
  UCH37 inh: 0.9
  ALR H2O2 inh: 1
  Ecoli growth: 0.69
  FGF22 binding: x

canonical_smiles: CCS(=O)(=O)c1ccc(O)c(NC(=O)COc2ccc(OC)cc2)c1
  HNF4A DNA FP: 1.8
  Beta2AR agonist: -3
  LANA-H2B inh: -4.9
  UCH37 inh: 0.9
  ALR H2O2 inh: 5
  Ecoli growth: 0.66
  FGF22 binding: x

canonical_smiles: N#Cc1ccc(OCC(=O)Nc2ccc(N3CCCC3)cc2)cc1
  HNF4A DNA FP: 17
  Beta2AR agonist: -3
  LANA-H2B inh: -13
  UCH37 inh: 0.9
  ALR H2O2 inh: 23
  Ecoli growth: 0.72
  FGF22 binding: i

(more compounds)
HNF4A DNA FP	Beta2AR agonist	LANA-H2B inh	UCH37 inh	ALR H2O2 inh	Ecoli growth	FGF22 binding	SMILES
-3.1	2	5.2	x	2	x	x	C/C(=N\NC(=O)COc1ccc(C)cc1C(C)C)c1ccc(-n2ccnc2)cc1
-0.6	4	5.9	4.5	x	0.73	x	CCOc1cc(C)c(S(=O)(=O)NC2CCCCC2)cc1C
-2.1	16	7.9	5.6	55	0.7	x	COc1ccccc1NC(=O)c1ccc(NC(=O)COC(=O)C(C)C)cc1
-0.7	4	5.2	1.9	1	0.69	i	CC1CCC(NC(=O)C2CCC(CNS(=O)(=O)c3cccc4cccnc34)CC2)CC1 (stereo unspecified)
3.7	10	5.3	3.8	-4	0.66	i	CN(c1ccccc1)S(=O)(=O)c1ccc(C(=O)OCC(=O)NC(N)=O)cc1
1.2	-3	x	x	x	x	i	O=C1NC[C@H](Cc2ccccc2)N(CC2CCN(CCc3ccccc3)CC2)C1=O
-0.3	-4	x	x	x	x	i	COc1ccc(CCCN2CCC(CN3CCNC(=O)C3=O)CC2)cc1OC
1.6	-1	-3.8	-1.2	-8	0.68	i	CCOc1ccc(C(=O)C2CCN(C(=O)c3ccc([N+](=O)[O-])cc3)CC2)cc1
-3.4	1	-0.2	-4.6	x	0.73	x	COCCNC(=O)Nc1ccc2nc(C)sc2c1
0.1	22	-7.4	0.1	-7	0.71	x	CCOC(=O)CSc1nc2c(c(=O)[nH]c(=O)n2C)n1C/C=C(/C)Cl
-3.5	11	-0.8	x	-4	x	i	CC(/C=C/c1ccccc1)=N\NC(=O)c1ccc(Br)cc1
-1.1	0	2.4	-1.2	2	0.71	x	COc1cc2c(cc1OC)CN(c1nc(CN3CCOCC3)nc3sc4c(c13)CCCC4)CC2
2.3	4	5.1	4.8	20	x	x	CCOc1ccc(N=C2NC(=O)S/C2=C\c2ccc(O)cc2)cc1
1.7	7	2.1	5.1	27	0.74	x	CCOC(=O)c1cnc2nc(COc3ccccc3)[nH]n2c1=O
0.1	-5	0.4	0.9	8	0.66	i	COc1cc(NC(=O)CCc2nnc3ccc(N4CCOCC4)nn23)cc(OC)c1OC
1.1	9	-0.3	-1.5	x	0.68	x	CCCCN1CC(C(=O)NC2CCCCC2)CC1=O (stereo unspecified)
3.3	2	-7.1	4.4	10	0.69	i	N=C1/C(=C\c2ccc(OC(=O)c3ccco3)cc2)C(=O)N=C2SC(N3CCCCC3)=NN12
4.0	5	-1.3	1.2	-31	0.67	i	Cc1cccc(CSCc2ccc(C(=O)O)o2)c1
19	4	-4.9	2.1	0	0.69	x	CCCOc1ccc(C(=O)NCCCn2ccnc2)cc1
0.3	-5	-0.6	-10	3	0.68	x	COC(=O)C1=NN(c2cccc(C)c2)C2C(=O)N(c3ccccc3OC)C(=O)C12 (stereo unspecified)
1.9	-3	-7.8	1.9	u	0.68	i	COc1ccc(N2CCN(C(CNC(=O)C(=O)NCc3ccncc3)c3ccco3)CC2)cc1 (stereo unspecified)
-2.6	-6	5.4	3.7	x	0.7	i	CC(=O)c1cccc(NC(=O)COC(=O)c2ccccn2)c1
-0.6	-5	0.4	3.6	-5	0.69	i	CCC(C)NCCCCOc1ccc(C)cc1[N+](=O)[O-] (stereo unspecified)
-3.2	-6	-13	-98	x	0.73	x	CC(C)Cn1c(-c2ccc(C#N)cc2)nc2c1c(=O)[nH]c(=O)n2CC(C)C
1.7	-16	x	x	x	x	i	COc1nc(N)nc2c1ncn2C1OC(CO)CC1O (stereo unspecified)
2.8	0	0.2	-0.7	-1	0.65	i	O=C(COC(=O)c1ccc(Br)o1)NCc1ccc2c(c1)OCO2
-5.8	-5	-1.0	2.3	3	0.73	x	Cc1nc(SCc2ccccc2C)n[nH]1
4.6	22	-3.0	0.0	3	x	x	CN([C@@H](Cc1ccc(OS(=O)(=O)c2cccc3cnccc23)cc1)C(=O)N1CCN(c2ccccc2)CC1)S(=O)(=O)c1cccc2cnccc12
-6.0	20	-4.6	28*	-21	0.73	x	Cc1ccc(N2C(=O)[C@@H]3[C@H](C2=O)C2c4ccccc4C=CN2[C@@H]3C(=O)c2ccco2)c(C)c1 (stereo partly specified)
5.0	-3	-7.8	3.5	6	0.72	i	CC(C)C[C@@H](C(=O)N[C@@H](C(=O)O)c1ccccc1)N1C(=O)N2CCc3c([nH]c4ccccc34)[C@@]2(C)C1=O
-0.3	-6	-0.7	2.1	3	0.74	x	COc1ccc(Cl)cc1NC(=O)c1c(-c2ccccc2)noc1C
1.6	-9	-7.7	x	-1	x	i	N/C(=N\OC(=O)c1ccccc1Br)c1cccc([N+](=O)[O-])c1
-4.0	2	-2.3	-111	1	0.69	i	O=C1c2cccc3cccc(c23)C(=O)N1c1cccnc1
0.4	-14	4.6	0.2	x	0.71	i	Cc1nn(CC2CC2)c(=O)n1N(C)c1ncc(C(F)(F)F)cc1Cl
-4.2	2	-5.4	0.3	-1	0.62	i	O=C(NCCCc1ccncc1)C1CCC(=O)N(Cc2ccc(Cl)cc2)C1 (stereo unspecified)
4.0	27	-3.8	-0.5	4	0.69	i	C=CCn1c(=O)[nH]c2cc(C(=O)N3CC=C(c4ccccc4)CC3)ccc2c1=O
-1.7	2	-0.1	0.1	-2	0.66	x	Cc1c(NC2=NC3(CCCCC3)Cc3ccccc32)c(=O)n(-c2ccccc2)n1C
-1.1	0	1.3	3.6	x	0.71	i	O=C(Cc1ccccc1)Nc1nnc(SCC(=O)NC2CCCC2)s1
1.0	0	-0.3	0.9	-4	0.64	i	Cc1cc(C)cc(N(CCC#N)C(=O)COC(=O)C2CCN(c3ccc(C(F)(F)F)cn3)CC2)c1
1.6	-4	2.5	6.9	-1	0.7	i	COc1ccc(OC)c(NC(=S)NC(=O)c2ccc(Br)o2)c1
2.0	11	-0.8	2.1	42	0.62	+	O=C(Nc1nnc(C(F)(F)F)s1)c1ccc(Br)s1
4.9	-12	-0.7	15	-1	0.6	i	Nc1nc(NCCN2CCOCC2)nc(NCc2ccccc2)c1[N+](=O)[O-]
-1.3	-2	4.4	1.5	x	0.72	i	CCC(=O)NC(Nc1c(C)n(C)n(-c2ccccc2)c1=O)C(Cl)(Cl)Cl (stereo unspecified)
-1.0	3	5.0	2.5	-3	0.65	i	CCCC(=O)N1CC(=O)Nc2ccc(C)cc2C1c1ccccc1 (stereo unspecified)
-3.0	-2	2.1	1.4	5	0.68	i	Cc1ccc(C)c(N2CCN(C(=O)Cn3ncn4cccc4c3=O)CC2)c1

Some of these compounds in order of their number in ALR H2O2 inh, rising.
HNF4A DNA FP	Beta2AR agonist	LANA-H2B inh	UCH37 inh	ALR H2O2 inh	Ecoli growth	FGF22 binding	SMILES
4.0	5	-1.3	1.2	-31	0.67	i	Cc1cccc(CSCc2ccc(C(=O)O)o2)c1
-0.1	-2	3.3	-2.8	-2	0.71	i	Cc1ccc(S(=O)(=O)N(C)c2ccc(C(=O)NCCc3ccccc3)cc2)cc1
-3.1	2	5.2	x	2	x	x	C/C(=N\NC(=O)COc1ccc(C)cc1C(C)C)c1ccc(-n2ccnc2)cc1

The list is partial; rates above refer to the full screens.
